VACV Venus inh: inhibitors of vaccinia virus (Venus reporter); 330,000 compounds, 0.46% hits; Vaccinia virus Venus reporter expression, fluorescence; Potency, µM (doses to about 36.5 µM), inactives show top-dose activity change, negative = inhibition, usual class: inhibitors; AID 720580; active means well fitted inhibition curve with a large enough effect; inconclusive means small, poorly fitted or top-dose-only effect; inactive means no such curve, though single readings can be large or run the other way; tested in A549 cells; further: nearly all actives have a fitted effect of over 30% in size; inactives centre near -10
Vaccinia mCherry: vaccinia inhibition (mCherry reporter); Vaccinia virus mCherry reporter infection, fluorescence; about a quarter of the inactives have no number; Potency, µM (doses to about 36.5 µM), for the others: at the highest dose activity change, negative = inhibition, usual class: inhibitors; 310,000 compounds, 0.63% hits; active = well fitted inhibition curve with a large enough effect; inconclusive = small, poorly fitted or top-dose-only effect; inactive = no such curve, though single readings can be large or run the other way; tested in A549 cells; further: nearly all actives have a fitted effect of over 35% in size; inactives centre near -10
An asterisk follows results filed as active; i = inactive; ? = inconclusive; · = no result given; & = joins results of further samples; [ ] = remark or other dose. On the % scale 0 is the no-effect control and ±100 the full control effect; potency means the concentration at half of the fitted maximal effect. Compounds were not picked by outcome; overall some 0.87% were active at least once.

SMILES,VACV Venus inh,Vaccinia mCherry
Cc1ccc(/C=C/c2onc(C)c2S(=O)(=O)N2CCC(C(=O)NC(C)(C)C)CC2)cc1,?,?
COc1ccc(N2CCN(C(=O)c3cc(-c4cc(OC)ccc4OC)nc4ccccc34)CC2)cc1,-24.4%,-29.0%
CC(=O)Nc1ccc(-c2ccnc3c2CC(C(=O)NCc2cccc(Cl)c2)O3)cc1 (stereo not drawn),-29.0%,?
O=C(COC(=O)COc1ccccc1)NCc1ccco1,-16.9%,-18.7%
CC(C)(C)c1ccc(N2C(=O)CSC2c2cccnc2)cc1 (stereo not drawn),-12.8%[7.34 µM],i[7.34 µM]
C[C@H](CO)N1C[C@H](C)[C@@H](CN(C)C(=O)Nc2ccc(C(F)(F)F)cc2)Oc2ccc(NC(=O)Nc3ccc4c(c3)OCO4)cc2C1=O,-11.9%,-4.2%
CCOC(=O)c1cnn(-c2sc(C(=O)OCC)c(C)c2C(=O)OCC)c1N,-16.0%,-2.0%
Cc1nc2cc(-c3sccc3-n3cccc3)nn2c(C)c1C,-7.2%,-21.7%
CC(NC(=O)C1(c2cccs2)CCOCC1)c1ccccc1 (stereo not drawn),1.7%&0.0%,-7.3%&-6.8%
CC(C)C(C(=O)NCc1ccccc1)N(CC1CCCO1)C(=O)CNS(=O)(=O)c1ccccc1 (stereo not drawn),-4.2%,-14.1%
O=C(CSc1nnc(-c2ccco2)n1-c1ccccc1)Nc1c(Cl)cc(Cl)cc1C(=O)O,-0.3%,-14.0%
COC(=O)c1sc(N)c(C(=O)OC)c1COC(=O)CNS(=O)(=O)c1ccc(C)cc1,-11.9%,i
O=C(COc1ccccc1)Nc1ccccc1NS(=O)(=O)c1cccs1,-8.2%,i
COc1cc(/C=C/C(=O)c2ccc3c(c2)OCO3)cc(Cl)c1O,320.4%[activator],?
COc1ccc(CNC(=O)COC(=O)/C=C/c2cccc(Br)c2)cc1,-7.9%,-13.1%
O=C(COc1ccc2ccccc2c1)NNC(=O)Nc1ccc(F)cc1F,-15.6%,i
COc1ccc(-n2nc([N+](=O)[O-])c(=NCc3cccnc3)n2O)cc1,-17.5%,-5.5%
Cc1c(CC(=O)NCCCC(=O)O)c(=O)oc2cc3oc4c(c3cc12)CCCC4,4.3%,-9.1%
CCCCS(=O)(=O)c1oc(-c2cccs2)nc1S(=O)(=O)c1ccccc1,?,?
CCOc1ccc(-n2c(=O)c3ccccc3c3ccccc3c2=O)cc1,-10.7%,?
Cc1c(CNC2CCCCC2)c(C(=O)O)c(C)n1Cc1cccc(Cl)c1,0.4%,-6.9%
Cc1ccc2nc(N3CCN(c4cccc(C)c4C)CC3)c3nncn3c2c1,-12.8%,-16.8%
O=C(NC(=S)Nn1cnc2c(cnn2-c2ccccc2)c1=O)c1ccc(Oc2ccccc2)cc1,-3.3%,i
CCOc1ccc(NC(=O)c2ccncc2)cc1,-8.5%,-11.8%
COC(=O)CN1C(=O)N/C(=C/c2cc3c(cc2OC)OCO3)C1=O,-9.5%,i
C=CCOc1c2ccc(C(=O)NCc3ccccc3OC)cc2nn1C,-11.7%,-9.8%
CCn1c(CN2CCOCC2)nnc1SCC(=O)Nc1ccccc1C,-15.5%,-21.9%
CCCCC(=O)N(CCOC)c1nnc(-c2cccnc2)s1,-1.6%,i
O=C(COC(=O)COc1ccccc1)Nc1cccnc1Cl,-6.5%,i
Cc1cc(NS(=O)(=O)c2ccc(NC(=O)c3cc4ccccc4o3)cc2)nc(C)n1,8.6%,·
CCN(CC)CCSc1nc2c([nH]1)c(=S)n(C)c(=O)n2C,-4.7%,-11.5%
CCOC(=O)c1c(C)n(-c2ccccc2)c2ccc(OC(=O)c3cccc(OC)c3OC)cc12,3.2%,-7.5%
CCn1cc(SCC(=O)NCc2ccc3c(c2)OCO3)c2ccccc21,-15.4%,-14.6%
CCOc1ccc(C(=O)N2CCCN(C(=O)c3ccc(OCC)cc3)CC2)cc1,-7.7%,-1.3%
COc1ccccc1NC(=O)Cc1nnc(SCC(=O)NC2=NCCS2)n1C,-0.2%,-9.1%
CCOc1ccc(C2NC(=O)c3sc(=S)n(-c4ccccc4)c3N2)cc1 (stereo not drawn),-5.8%,-13.5%
CCOC(=O)C1CCN(CC(=O)c2c(C)[nH]c3cc(C)ccc23)CC1,15.2%,·
CC(=O)/C(C#N)=C1\NC(=O)C(Cc2ccccc2C)S1 (stereo not drawn),79.5%[activator],?
CCCOc1ccc(C(=O)Nc2cccc(NC(=O)c3ccc(Cl)cc3Cl)c2)cc1,?,?
CC(C)C(=O)Nc1nnc(Cc2ccccc2)s1,-3.4%,-8.3%
Cc1c(C(=O)Nc2nnc(C3CC3)s2)oc2c(Cl)cccc12,-7.3%,-16.8%
Cc1nn(-c2ccccc2)c2sc(C(=O)Nc3ccc(Cl)cc3Cl)cc12,-4.1%,-7.9%
CN(CC(=O)Nc1ccc(N2CCOCC2)cc1)C(=O)CCNC(=O)c1ccccc1Cl,-6.5%,-5.4%
O=C1CCSc2ccc(S(=O)(=O)Nc3cccc(C(F)(F)F)c3)cc2N1,-3.0%,-9.7%
COC(=O)C(CCSC)NC(=O)c1cc2c(n(-c3ccc(C)cc3)c1=O)CCCC2=O (stereo not drawn),1.1%,i
Cc1ccc(C)c(OCC(=O)Nc2sc3c(c2C#N)CCCC3)c1C,-16.4%,-27.3%
CN1CCN(C(=O)c2ccc(N(C)S(=O)(=O)c3cccs3)cc2)CC1,-19.1%,-2.2%
CC1CCCN(CCCNC(=O)c2nn(C)c3c2CSc2ccccc2-3)C1 (stereo not drawn),-9.2%,i
Cc1c(N=C2C=C(Br)C(=O)C(Br)=C2)c(=O)n(-c2ccccc2)n1C,-2.9%,-13.4%
COC(=O)c1cnc2c(C(F)(F)F)cccc2c1OC,-12.7%,·
COc1cc(Br)c(CN2C(=O)NC3(CCCCCC3)C2=O)cc1OC,-20.9%,-26.1%
O=C(NCCN1C(=O)S/C(=C\c2ccc(OC(F)F)cc2)C1=O)C1=COCCO1,?,-20.3%
Cc1ccccc1CSc1nnc(CCCCCNC(=O)OC(C)(C)C)o1,-5.1%,i
C=CCC[C@@H](Cc1ccc(F)cc1)C(=O)OC[C@@H](NC(=O)[C@H](CC=C)CC(=O)NCCO)C(C)(C)C,-21.0%,i
Cc1ccc(CNC(=O)CN(C)S(=O)(=O)c2cccc3nsnc23)cc1,6.1%,11.7%
O=C(CC12CC3CC(CC(C3)C1)C2)N1CCCC1,-0.7%,i
O=C(CCNC(=O)c1ccco1)NCCc1ccc(Cl)cc1,-17.4%,i
COc1cc(OC)cc(C(=O)N[C@H](C(=O)Nc2nc3ccc(S(C)(=O)=O)cc3s2)C(C)C)c1,6.4%,i
O=C(NC1CCCCC1)N(Cc1nc2ccccc2c(=O)[nH]1)C1CCCC1,-7.9%,-24.2%
COc1ccc(C2=[N+]([O-])C(C)(C)N(O)C2C)cc1 (stereo not drawn),1.7%,-12.1%

Further entries
SMILES,VACV Venus inh,Vaccinia mCherry
Cc1csc(NC(=O)COCC(=O)O)c1-c1nc2ccccc2s1,-10.2%[7.34 µM],i[7.34 µM]
CCOc1cc(/C=C2\C(=O)N(c3cccc(C(F)(F)F)c3)C(=O)c3ccccc32)ccc1O,-6.9%,i
O=C(C1CCCC1)N1CCN=C1SCc1cccc([N+](=O)[O-])c1,-12.6%,-15.5%
COc1cccc2c1Oc1ncccc1N(C(=O)Nc1ccc(F)c(Cl)c1)C2,-0.8%,-7.6%
COc1ccc(NC(=S)N(Cc2ccc(C(=O)O)cc2)Cc2ccc(OC)c(OC)c2)cc1,-21.1%,i
O=C(N/N=C/c1cccs1)c1ccccn1,-8.4%,-13.5%
CCCCC(Sc1nc2cc3c(cc2c(=O)n1CCCC(=O)NCc1ccc2c(c1)OCO2)OCO3)C(=O)OCC (stereo not drawn),-2.6%,-2.2%
COc1ccc(C)cc1NC(=O)Nc1cccc(C(=O)O)c1,-8.2%,i
Cc1[nH]c(=O)c(C#N)cc1-c1ccncc1,-9.1%,i
Cc1ccn2c(CNCCn3cccn3)c(C(=O)N3CCCCCC3)nc2c1,-14.2%,-1.9%
CC(=O)n1cc(Nc2ccccc2C(=O)O)c2ccccc21,5.2%,·
Cn1c(=O)c([N+](=O)[O-])c(Cl)c2ccccc21,-4.2%,-13.7%
CC(C)(C)NC(=O)C(=O)NNC(=O)c1ccco1,-4.0%,-13.9%
O=C(COc1ccccc1C(=O)Nc1ccccc1F)Nc1ccc(Br)cc1,-14.8%,-20.8%
CCOC(=O)c1c(NC(=O)c2nc(S(C)(=O)=O)ncc2Cl)sc(C(C)=O)c1C,-15.3%[7.34 µM],-11.4%[7.34 µM]
COc1ccc(CCNC(=O)CCCn2c(=O)c3cccn3c3ccccc32)cc1OC,-11.8%,-6.5%
O=C(NCc1cccnc1)c1cccc(-c2cc3ccccc3oc2=O)c1,-9.4%,-0.1%
CCOC(=O)C1=C(COC(=O)/C=C/c2ccc(SC)cc2)NC(=O)NC1C (stereo not drawn),-20.9%,-26.9%
COc1ccc(Cc2nnc(SCC(=O)N(C)CC(=O)Nc3ccc(C)cc3)o2)cc1,-19.3%,-4.8%
CCCCCCCCCCCCCC(=O)OC1C(C)[C@@]2(O)C(C=C(CO)C[C@]3(O)C(=O)C(C)=C[C@H]23)[C@@H]2C(C)(C)[C@]12OC(C)=O (stereo partly drawn),-20.4%,-5.5%
O=C1CC(c2ccc(O)cc2)Oc2ccccc21 (stereo not drawn),0.0%,-5.1%
CCCCOC(=O)Nc1ccc(OC)cc1S(=O)(=O)N1CCOCC1,-0.1%,-9.4%
CCOC(=O)C1CCN(C(=O)CCN2C(=O)C3C4C=CC(C4)C3C2=O)CC1 (stereo not drawn),-14.4%,-9.0%
O=C(Nc1nnc(S(=O)(=O)N2CCc3ccccc32)s1)c1ccccc1,-10.7%,-9.9%
COc1ccc(Nc2nc(-c3ccccc3)nc3ccccc23)c(OC)c1,-9.6%,?
O=C(COn1nnc2ccc(C(F)(F)F)cc21)Nc1c(Cl)cccc1Cl,-4.0%,-5.5%
COc1cc(CN(C(=O)COc2ccccc2)c2ccccn2)cc(OC)c1OC,-2.8%,-11.4%
Cc1ccccc1-n1c(=O)c2ccccc2n2nnnc12,14.4%,-8.0%
CC1CN(C(=O)c2cccc(NS(=O)(=O)c3ccc(Br)cc3)c2)CC(C)O1 (stereo not drawn),-10.7%,i
CCN1CCN(C(=O)CN(c2cccc(Br)c2)S(=O)(=O)c2ccccc2)CC1,-10.1%,i
O=C(NCCC1CCCCN1S(=O)(=O)c1ccc(F)cc1)C(=O)NC1CCCC1 (stereo not drawn),3.0%,-6.8%
O=C(NCC(=O)N1CCCC(C(F)(F)F)C1)c1cccs1 (stereo not drawn),-9.9%,-10.9%
CCOc1ccc(-c2cc(NC(=O)c3ccc(C)cc3)c(C(=O)OC)s2)cc1,-2.6%,-1.0%
COc1ccc2[nH]cc(CCNC(=O)Nc3cc(C)cc(C)c3)c2c1,-13.2%,-18.6%
O=C(NCc1ccc2c(c1)OCO2)c1ccc(S(=O)(=O)NCC2CCCO2)cc1 (stereo not drawn),-9.0%,·
CCS(=O)(=O)NCCc1ccc(OC)c(OC)c1,-8.9%,-4.6%
COc1ccccc1N1CC(C(=O)OC(C)C(=O)N2CCCc3ccccc32)CC1=O (stereo not drawn),-0.5%,1.3%
Cc1ccc(C)c(S(=O)(=O)NCc2nc(N3CCCC3)c3cc(Cl)ccc3n2)c1,-4.7%,-9.0%
Cn1cc(C(=O)NC2CCCCCC2)c(=O)c2cc(S(=O)(=O)N3CCCC3)ccc21,-3.9%,i
CC1CCN(Cc2c(C(=O)N/N=C/c3ccccc3O)nnn2-c2nonc2N)CC1,?,2µM*
COc1ccc(OC)c2sc(N(Cc3cccnc3)C(C)=O)nc12,-3.9%,-9.8%
CCOC(=O)c1c(NC(=O)COC(=O)CCOc2ccc(OCC)cc2)sc(C(=O)N(C)C)c1C,-6.8%,i
COc1ccccc1-c1nnc(NC(=O)CSc2nncn2C)s1,-13.6%,i
COC(=O)N(C)C[C@@H]1OCc2cn(nn2)CCCC(=O)N([C@@H](C)CO)C[C@H]1C,-13.0%,-15.0%
O=C(Nc1ccc(Cl)c(Cl)c1)c1ccccc1,-23.8%,-6.7%
O=S(=O)(NCCCCNS(=O)(=O)c1cccc2cccnc12)c1cccc2cccnc12,-9.5%,25.0%
COC(=O)NC1(C(F)(F)F)C(=O)Nc2c1c(=O)n(C)c(=O)n2C (stereo not drawn),-5.4%,-0.7%

One compound at a time, from the list above. Order of values: VACV Venus inh, Vaccinia mCherry
Results for `COc1ccc(OC)c2sc(N(Cc3cccnc3)C(C)=O)nc12` : -3.9%, -9.8%
Results for `CCOC(=O)c1c(NC(=O)COC(=O)CCOc2ccc(OCC)cc2)sc(C(=O)N(C)C)c1C` : -6.8%, i
Results for `Cc1ccc(C)c(S(=O)(=O)NCc2nc(N3CCCC3)c3cc(Cl)ccc3n2)c1` : -4.7%, -9.0%
Results for `CCS(=O)(=O)NCCc1ccc(OC)c(OC)c1` : -8.9%, -4.6%

From PubChem
